HIV Env fusion = inhibitors of HIV-1 Env-driven cell-cell fusion, primary screen, HeLa-JRFL effector, CEM21 target cells, luciferase; inhibition, % at 12.3 µM; actives 1.1% (n = 360,000); AID 651610, 2012;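 active = mean replicate inhibition score of at least 50 and every replicate individually at or above 50; inconclusive = only one of the two criteria met; inactive = mean below 50 and not all replicates reaching 50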;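 also: 0% = plate neutral controls and 100% = maraviroc near 300 nM; one replicate is shown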
MT1-MMP act inh = blockers of MT1-MMP proenzyme processing, primary screen, HT1080 RFP-PRO-GFP cells, GFP/RFP fluorescence; GFP/RFP ratio fluorescence, overnight; percent of plate control window, DMSO zero; GFP/RFP ratio change, % at 20 µM; actives 0.061% (n = 360,000);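 active = GFP/RFP ratio change of at least 30% with cell ATP level not reduced by more than half and red fluorescence within 50% of control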; also: strong numbers were not always called active
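Assay system: HT1080 cells carrying an RFP-PRO-GFP reporter | Dosing: Single dose of 20 µM compound, 1% DMSO final | Incubation: Cells overnight before dosing, compound overnight, 37 °C, 5% CO2 | Evaluation: GFP/RFP fluorescence ratio | Control set: DMSO and RFP-L50D-GFP cell wells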
Rce1 inh = yeast Rce1p protease inhibitors, primary screen, biochemical, fluorescence, cell-free homogeneous; calls only; actives 0.27% (n = 290,000); yeast membranes, quenched prenylated peptide cleavage fluorescence; CAAX prenyl protease 2 (Saccharomyces cerevisiae (strain ATCC 204508 / S288c)), Q03530;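 active = fall in fluorescence gain of 50% or more versus controls, with final raw signal at or below 3038400; inconclusive = same 50% fall but final raw signal above 3038400; inactive = fall in fluorescence gain under 50%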;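 also: plate controls were neutral control wells for no effect and wells lacking membranes for full effect; tested at 10 µM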
eIF4H inh = human eIF4H binding inhibitors, primary screen, translation initiation inhibitor project, biochemical, uHTS, fluorescence polarization. Eukaryotic translation initiation factor 4H (Homo sapiens), Q15056. eIF4H fluorescence polarization binding assay. inhibition, % at 35 µM. actives 0.94% (n = 290,000). AID 2012, 2009;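 active = 50% or more with normal probe brightness, or confirmed in later tests; inconclusive = above 50% with abnormal brightness, or retests that disagree; inactive = below 50% or failed in later tests; about a fifth of its hits are not listed in these tables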;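 also: calls also rest on retests at 20 µM and on dose response follow-up; 0% = protein and probe with vehicle and 100% = probe without protein; strong numbers were not always called active; many hits fall short of the cut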
PABP polyA inh = PABP poly(A) RNA binding inhibitors, primary screen, biochemical, fluorescence polarization, uHTS. inhibition, % at 35 µM. actives 1% (n = 290,000);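 active = 50% or more with normal probe brightness, or confirmed in later tests; inconclusive = above 50% with abnormal brightness, or retests that disagree; inactive = below 50% or failed in later tests; about a fifth of its hits are not listed in these tables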;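 also: calls also rest on retests at 20 µM and on dose response follow-up; controls were probe without protein and protein plus probe with vehicle; some compounds called inactive have numbers as strong as hits; many hits fall short of the cut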
Target sequence (P11940 whole entry, looked up): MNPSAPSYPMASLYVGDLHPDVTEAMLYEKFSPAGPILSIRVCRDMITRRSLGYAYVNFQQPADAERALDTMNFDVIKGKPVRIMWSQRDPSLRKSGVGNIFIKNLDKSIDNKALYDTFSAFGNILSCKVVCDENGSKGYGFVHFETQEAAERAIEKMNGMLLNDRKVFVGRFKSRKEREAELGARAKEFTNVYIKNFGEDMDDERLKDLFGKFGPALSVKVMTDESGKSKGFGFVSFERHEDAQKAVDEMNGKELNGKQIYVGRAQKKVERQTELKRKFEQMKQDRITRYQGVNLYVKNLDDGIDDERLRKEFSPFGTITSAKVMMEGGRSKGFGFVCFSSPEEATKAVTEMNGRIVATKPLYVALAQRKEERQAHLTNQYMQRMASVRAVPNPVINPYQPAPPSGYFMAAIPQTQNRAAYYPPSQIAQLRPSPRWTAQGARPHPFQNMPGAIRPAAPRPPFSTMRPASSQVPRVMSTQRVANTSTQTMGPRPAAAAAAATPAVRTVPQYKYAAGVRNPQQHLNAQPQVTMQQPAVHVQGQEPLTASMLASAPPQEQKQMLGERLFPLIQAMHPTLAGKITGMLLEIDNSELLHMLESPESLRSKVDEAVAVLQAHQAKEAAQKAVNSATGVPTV
CSC inhib = cancer stem cell viability inhibitors, primary screen, luminescence; cancer stem cell-like cells viability; AID 2717, 2010; actives 1.1% (n = 300,000); inhibition, % at 7.5 µM;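 active = mean at 75% or more and at least half the replicates too; inconclusive = mean and replicates disagree; tested in HMLE shEcad cells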;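 also: 0% = median of negative and 100% = median of positive control wells; the first replicate is given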
Yeast UUG start = modulators of yeast start codon fidelity, primary screen, whole organism, S. cerevisiae, single point, plate reader | S. cerevisiae UUG-firefly luciferase reporter, luminescence/redox ratio | activity score, % at 18.7 µM | actives 0.13% (n = 350,000) | AID 602363, 2012;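 active = replicate mean at a twofold rise or more, about +100% in these data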;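 also: firefly luciferase made from a UUG start codon reports start codon fidelity; reporter light over untreated wells divided by growth signal over untreated wells; some hits fall short of that in this replicate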
eIF4H inh retest = also measured in eIF4H inh; calls as there; inhibition, %; compound at 20 µM; confirmation average;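 mean of two retest wells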
PABP polyA inh retest = second read-out of PABP polyA inh, no call of its own (marks repeat the call); inhibition, %; compound at 20 µM; confirmation repeats;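 mean of two retest wells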
MT1-MMP act inh RFP = recorded beside MT1-MMP act inh, whose call it bears; RFP signal change, %; measured here: RFP expression control read;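 0 = vehicle wells; hits needed this value within 50% of zero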
Numbers without * were called inactive; i = inactive; ? = inconclusive; / = not tested or not shown.

SMILES | HIV Env fusion | MT1-MMP act inh | MT1-MMP act inh RFP | Rce1 inh | eIF4H inh | PABP polyA inh | CSC inhib | Yeast UUG start | others
Cc1ccc(/C=C/C(=O)N2CCN(S(=O)(=O)c3cccs3)CC2)o1 | 3 | -3 | 0 | i | 1 | 1 | -2 | /
Cc1[nH]c2ccccc2c1/C=N/NC(=S)NCc1ccccc1 | -2 | -2 | 0 | i | -3 | -3 | / | /
CCN(C(=O)COc1ccc(C(C)=O)cc1)c1cccc2ccccc12 | / | -2 | -1 | / | / | / | -15 | -9
CCCCOc1ccc(-c2nc(SCC(N)=O)n[nH]2)cc1 | -90 | 5 | -2 | i | 0 | 3 | 0 | -18
O=C(NCCOc1ccccc1)c1cccc2c1C(=O)c1ccc(Cl)cc1S2(=O)=O | -5 | 0 | 6 | / | / | / | -13 | -8
COc1cccc(C(=O)OCC(=O)N2CCc3ccccc32)c1OC | -51 | 0 | -4 | / | / | / | / | -11
CC(=O)Nc1ccc(S(=O)(=O)NC2(C(F)(F)F)N=C(c3ccccc3)NC2=O)cc1 (stereo not given) | / | 7 | 1 | i | -4 | -3 | -6 | -5
CCC(=O)N1CCc2cc(S(=O)(=O)N3CCN(c4cc(Cl)ccc4C)CC3)ccc21 | 0 | 6 | -2 | i | -14 | 7 | -1 | -8
COC(=O)[C@H](Cc1ccccc1)NC(=O)Nc1ccc(S(N)(=O)=O)cc1 | / | -2 | -1 | i | -2 | 0 | -3 | 3
CCSC(=O)N(CC)CC(=O)Nc1c(CC)cccc1CC | / | 0 | 2 | i | -5 | -5 | -2 | -19
CCOC(=O)c1csc(-n2nc(C)cc2C(F)(F)F)n1 | 5 | -1 | 2 | i | 2 | 9 | / | /
CC(C)NC(=O)c1cnc(N2CCN(c3ccccn3)CC2)c2ccccc12 | -48 | -1 | -3 | i | 3 | 1 | 4 | -6
Cc1ccc(CCN2CC(C(=O)NCCN(C)C)CC2=O)cc1 (stereo not given) | 15 | 1 | -1 | i | 1 | -7 | / | -15
O=C(NC1CCCCCC1)C1CCC(=O)N(Cc2ccccc2F)C1 (stereo not given) | 3 | / | / | i | 3 | 8 | 1 | 14
COc1ccc(-c2csc(C(NC(C)=O)c3ccccc3)n2)cn1 (stereo not given) | 13 | 0 | 2 | / | / | / | / | 0
COC(=O)c1ccsc1NC(=O)C1=COCCO1 | -67 | -7 | 0 | i | 6 | 10 | -8 | -7
CCOc1ccc(S(=O)(=O)N2CCCC(C(=O)Nc3ccccc3)C2)cc1 (stereo not given) | 3 | -13 | -14 | i | 1 | -8 | -6 | -5
Cc1ccc(S(=O)(=O)N(CC(=O)NCC2CCCO2)Cc2ccc(F)cc2)cc1 (stereo not given) | -2 | 1 | 3 | i | -8 | 0 | -1 | -3
C=C1C(=O)O[C@@H]2[C@H]1[C@@H](OC(=O)/C(C)=C/C)C/C(C)=C\C(=O)/C=C(\C)[C@@H]2O | -141 | -4 | -16 | i | -6 | -2 | 2 | -9
COc1cc(OC)cc(N(C(=O)c2ccco2)C(C(=O)NC2CCCC2)c2ccc(N(C)C)cc2)c1 (stereo not given) | / | -2 | -2 | i | -8 | 6 | 13 | 4
CC1(C)CC(CCNS(=O)(=O)c2ccccc2)(c2ccccc2)CCO1 (stereo not given) | 9 | 3 | 3 | i | 11 | ? | -8 | /
CC(CNc1ccc(Cl)cc1)(CNc1ccc(Cl)cc1)[N+](=O)[O-] | 32 | 3 | 2 | / | / | / | / | -18
S=C(Nc1ccc(Cl)c(Cl)c1)NC1CCN(Cc2ccccc2)CC1 | / | 4 | -13 | i | 0 | -6 | / | -8
O=C(C[n+]1ccccc1)N1CCCc2ccccc21 | 3 | 4 | 3 | i | -13 | -8 | 4 | /
COc1ccc(C2=NS(=O)(=O)N(C)C(C(=O)NCc3cccs3)=C2)cc1OC | -21 | -3 | -2 | i | -2 | -5 | -1 | -5
CCC(=O)N(Cc1cc2ccccc2[nH]c1=O)C(C)C | / | -2 | -1 | i | -10 | -11 | / | 10
COc1ccc(NC(=S)/N=C(\N)Nc2nc(C)c3ccc(C)cc3n2)cc1 | -11 | -3 | -13 | i | 1 | 0 | / | -28
COc1ccccc1NC(NC(=O)c1ccccn1)C(Cl)(Cl)Cl (stereo not given) | -8 | 3 | 5 | i | -8 | -4 | -1 | /
Cc1ccc(C)c(NC(=O)COC(=O)c2cc3ccccc3oc2=O)c1 | -1 | 7 | -1 | / | / | / | / | -24
CCCCN(C(C)=O)c1c(CC)nc2ccc(C(=O)NCCCN(C)C)cn12 | 9 | 1 | 3 | / | / | / | / | -11
CSc1nsc2nc(=O)c(/C=C3\C(C)=Nc4ccc(C)cc43)c(N)n12 | -7 | -9 | -8 | i | ? | -4 | 48 | -5
O=C1C2C3C=CC(C3)C2C(=O)N1c1ccc2ccccc2n1 (stereo not given) | / | -2 | 1 | / | -7 | -9 | -10 | -6
O=C(CN1C(=O)NC(c2ccccc2)(c2ccccc2)C1=O)N1CCN(c2ccccc2F)CC1 | 3 | 0 | -9 | / | / | / | / | 16
CCc1c(C)nc2c(-c3ccccc3)c(C)nn2c1Nc1ccc(NC(C)=O)cc1 | -9 | -2 | -11 | i | 6 | 2 | 54 | -9
COc1ccc(C(=O)OC(C)C(=O)NC2CCCC2)cc1S(=O)(=O)N1CCOCC1 (stereo not given) | -19 | -2 | 1 | / | / | / | 3 | -11
CCOc1ccc(OCC)c(NC(=O)CN2CCN(c3cccc(C)c3)C(C)C2)c1 (stereo not given) | / | -22 | -24 | i | -4 | 27 | -16 | 8
CC(=O)OC(COc1ccccc1)Cn1cnc2cc(C)c(C)cc21 (stereo not given) | 8 | 1 | 0 | i | 2 | 2 | -19 | /
CC(=O)Nc1ccc(C(=O)COC(=O)CCS(=O)(=O)c2ccccc2)cc1 | -1 | 2 | 3 | i | / | / | -14 | -7
CC1CC(C)(C)OC(C[N+]2(C)CCCCC2)O1 (stereo not given) | 15 | -2 | 0 | i | 0.6* | 52* | -12 | / | eIF4H inh retest=107*;PABP polyA inh retest=86*
COC(=O)c1ccc(CC(=O)c2ccc(O)cc2O)o1 | / | -7 | 0 | i | 6 | 8 | 3 | 11
CCC(C(=O)O/N=C(\N)c1ccc(C)cc1)c1ccccc1 (stereo not given) | -39 | 1 | 4 | i | -9 | 1 | / | -15
COc1ccc(C2CC(=O)Oc3c2c(=O)n(C)c2ccccc32)c(OC)c1OC (stereo not given) | 3 | 0 | 3 | i | -6 | 3 | -13 | /
COc1ccc2[nH]c(=O)c(-c3nnn(-c4ccc(Cl)nc4)n3)cc2c1 | / | 1 | 4 | i | / | / | -12 | -10
COC(=O)[C@H](Cc1ccccc1)[C@@H](C)OS(N)(=O)=O | -8 | 3 | 1 | i | 0 | -2 | 21 | -10
Cc1nc2ccc(NC(=O)C3=NN(C)C(=O)CC3)cc2s1 | / | 1 | 1 | / | / | / | 14 | -6
CCOC(=O)CNC(=O)c1ccc(OCC(F)(F)F)cc1 | -16 | 3 | 6 | i | -2 | 2 | -7 | -22
C=CCn1c(NC(=O)c2ccc(Br)o2)c(S(=O)(=O)c2ccccc2)c2nc3ccccc3nc21 | 0 | -30 | 0 | i | ? | 55* | 3 | -7
O=C(Nc1ccc2c(c1)OCO2)Oc1ccccc1 | ? | -4 | 3 | i | 1 | 7 | 2 | -34
Cc1cccc(C(C)(C)C)c1OCCN1CCCC1 | / | 7 | 0 | i | 1 | 1 | -8 | -7
CC(=O)c1ccc(OC(C)C)c(CSC(=N)N)c1 | 12 | -5 | -2 | i | 0 | -6 | -3 | /
CCc1cccc(NS(=O)(=O)c2cccc3cccnc23)c1 | 7 | -4 | -5 | i | -3 | 5 | 15 | -16
CC(=O)Nc1ccc(S(=O)(=O)NCc2nc(-c3ccccc3)no2)cc1 | -2 | -1 | 0 | i | 1 | 5 | 4 | -7
O=C(C(Cc1ccccc1)NS(=O)(=O)c1cccc2cccnc12)N1CCc2ccccc21 (stereo not given) | 55* | -6 | -6 | i | 0 | -6 | -1 | -12
COc1ccc(C(C)=O)cc1COC(=O)CNC(=O)c1ccc(F)cc1 | 26 | 0 | 0 | i | -3 | -8 | 5 | /
CCOc1ccc(Nc2oc(-c3ccco3)nc2C#N)cc1 | / | 1 | -1 | i | -1 | 4 | / | -2
COC(=O)c1ccc2c(=O)n(CCN3CCOCC3)c(SCC(=O)C(C)(C)C)nc2c1 | 6 | 2 | 1 | i | -9 | -8 | -3 | -16
COc1cc(C(=O)NCCc2cc3c(OC)ccc(OC)c3[nH]c2=O)cc(OC)c1OC | 8 | -1 | 0 | i | 5 | -3 | / | /
COc1ccc(NC(=O)c2ccc(NS(=O)(=O)c3c(C)noc3C)cc2)cc1OC | -58 | 0 | 1 | i | -4 | 10 | 9 | 1
CCOC(=O)c1c(C)n(C)c2c1cc(OC(C)=O)c1ccccc12 | -5 | 5 | 0 | i | 5 | 21 | -15 | -15
CCn1c(SCC(=O)N2CCN(c3ccccc3)CC2)nc2c([nH]c3ccccc32)c1=O | / | -3 | -1 | i | 1 | -6 | 14 | -22

Looked up by compound from above, four records:
SMILES | HIV Env fusion | MT1-MMP act inh | MT1-MMP act inh RFP | Rce1 inh | eIF4H inh | PABP polyA inh | CSC inhib | Yeast UUG start | others
Cc1ccc(/C=C/C(=O)N2CCN(S(=O)(=O)c3cccs3)CC2)o1 | 3 | -3 | 0 | i | 1 | 1 | -2 | /
COC(=O)c1ccc2c(=O)n(CCN3CCOCC3)c(SCC(=O)C(C)(C)C)nc2c1 | 6 | 2 | 1 | i | -9 | -8 | -3 | -16
CCC(=O)N(Cc1cc2ccccc2[nH]c1=O)C(C)C | / | -2 | -1 | i | -10 | -11 | / | 10
COc1ccc(C2CC(=O)Oc3c2c(=O)n(C)c2ccccc32)c(OC)c1OC (stereo not given) | 3 | 0 | 3 | i | -6 | 3 | -13 | /

Later entries:
SMILES | HIV Env fusion | MT1-MMP act inh | MT1-MMP act inh RFP | Rce1 inh | eIF4H inh | PABP polyA inh | CSC inhib | Yeast UUG start | others
O=C(CC(C(=O)N1CCc2ccccc21)n1ccnc1)NCC1CCCO1 (stereo not given) | -1 | -1 | 8 | i | -5 | 1 | 8 | -8
COc1cccc(NC(=O)CCSc2nnc3scc(-c4ccccc4)n23)c1 | 13 | 0 | 0 | i | 1 | -15 | 4 | -11
NC(=S)N/N=C/c1ccc(-c2ccc(Cl)c(Cl)c2)o1 | / | 0 | 3 | i | -8 | -4 | 11 | -11
COc1ccc(CC(=O)NCCc2ccc(S(N)(=O)=O)cc2)cc1 | -54 | 9 | 7 | i | -6 | -4 | -16 | 6
C/C(=N\Nc1ccccc1)c1cc2ccccc2oc1=O | 6 | 1 | 0 | i | 0 | 1 | 14 | /
CCC1Sc2ccccc2N(CC(=O)NCCC2=CCCCC2)C1=O (stereo not given) | 10 | 2 | -5 | i | -4 | -8 | -4 | /

Screening results (PubChem)
